D2 potentiator = Beta-Arrestin HTS for Positive Allosteric Modulators of the Human D2 Dopamine Receptor: Potentiators. potentiation, % (test concentration not listed). D(2) dopamine receptor (Homo sapiens), P14416. DiscoveRx D2 beta-arrestin cells, luminescence, 90 min; 100% = 57 uM dopamine signal. AID 624464, 2012. 360,000 tested, 0.23% active; active = potentiation of 50% or more; inconclusive = 30% to 50%; inactive = 30% or less;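 also: compound concentration not given in the record; tested on top of an EC20 dose of dopamine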
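PathHunter beta-arrestin assay in DiscoveRx D2 cells. Compounds were added with an EC20 of dopamine (50 nM final) for 90 min at 37 deg C. Luminescence was read 1 h after detection reagent, with 57 uM dopamine as the EC100 control.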
gsp agonist = qHTS for Agonist of gsp, the Etiologic Mutation Responsible for Fibrous Dysplasia/McCune-Albright Syndrome: qHTS | gsp mutant cells, cAMP HTRF, 30 min; control for the full effect not named in the record | Potency, µM (series often up to 76.9 µM), without a hit: at the highest dose activation (cAMP increase), actives largely listed as activators | 340,000 tested, 0.13% active; active = well fitted activation curve with a large enough effect; inconclusive = small, poorly fitted or top-dose-only effect, or another doubt; inactive = no such curve, though single readings can be large or run the other way; cell line not stated here;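 also: phosphodiesterase inhibitor Ro 20-1724 added with compounds to block cAMP breakdown; potency is read from the fitted curve at half-maximal effect; nearly all actives have a fitted effect of over 60% in size; about a fifth of the inactives were tested at one dose only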
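Cells in DMEM/10% FBS with G418 were pretreated with compounds in DMSO plus […] (300 uM stock) for 30 min at 37C. cAMP was measured by HTRF (cAMP-d2 plus anti-cAMP antibody-K) after 30 min at room temperature.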
Six1-Eya2 blk = qHTS Assay for Inhibitors of the Six1/Eya2 Interaction | Homeobox protein SIX1 (Homo sapiens) + Protein phosphatase EYA2 (Homo sapiens), … | AlphaScreen GST-Six1/His-Eya2 binding, biochemical; active compounds read low; control for the full effect not named in the record | activity change, % (no concentration beside the values) | 360,000 tested, 0.56% active; in the data active = activity change below about -65%; inconclusive = about -30% to -65%; inactive = above about -30%; also: % is scaled to controls: 0 for no effect and ±100 for the full control effect
Target sequence (O00167 whole entry, looked up): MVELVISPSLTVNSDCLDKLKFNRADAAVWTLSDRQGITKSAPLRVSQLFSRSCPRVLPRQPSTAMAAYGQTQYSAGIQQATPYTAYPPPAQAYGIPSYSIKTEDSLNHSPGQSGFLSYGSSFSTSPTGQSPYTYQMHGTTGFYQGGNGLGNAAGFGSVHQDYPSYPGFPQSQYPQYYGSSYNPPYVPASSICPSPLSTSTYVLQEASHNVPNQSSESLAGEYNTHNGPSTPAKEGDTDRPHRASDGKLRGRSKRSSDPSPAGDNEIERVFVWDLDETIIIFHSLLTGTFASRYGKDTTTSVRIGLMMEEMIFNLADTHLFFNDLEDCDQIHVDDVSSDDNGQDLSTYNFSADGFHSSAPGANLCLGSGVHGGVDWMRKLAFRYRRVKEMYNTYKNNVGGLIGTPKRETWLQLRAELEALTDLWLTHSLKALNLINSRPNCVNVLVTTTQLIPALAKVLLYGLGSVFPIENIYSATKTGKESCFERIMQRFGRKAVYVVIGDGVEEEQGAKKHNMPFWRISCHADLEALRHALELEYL
Target sequence (Q15475 whole entry, looked up): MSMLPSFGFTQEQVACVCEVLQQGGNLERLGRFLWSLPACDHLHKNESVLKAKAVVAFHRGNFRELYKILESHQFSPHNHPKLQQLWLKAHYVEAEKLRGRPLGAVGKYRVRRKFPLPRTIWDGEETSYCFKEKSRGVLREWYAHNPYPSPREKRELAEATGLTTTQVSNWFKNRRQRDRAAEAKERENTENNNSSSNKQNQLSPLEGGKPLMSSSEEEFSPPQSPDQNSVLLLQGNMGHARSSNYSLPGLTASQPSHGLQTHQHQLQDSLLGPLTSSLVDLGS
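GST-Six1 + His-Eya2 (5X stock: 250/500 nM); Tris pH 8.0, 300 mM NaCl, 0.05% BSA, 0.02% Tween 20; GSH donor/Ni acceptor beads; 1 h 37 °C dark; AlphaScreen readout.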
D2 ag = Beta-Arrestin HTS for Positive Allosteric Modulators of the Human D2 Dopamine Receptor: Agonists; DiscoveRx PathHunter D2 beta-arrestin, luminescence, 90 min; 100% = 57 uM dopamine signal; activation, % (no concentration beside the values); 360,000 tested, 0.084% active; in the data active = activation above about 40%; inconclusive = about 15% to 40%; inactive = below about 15%; also: compound concentration not given in the record; the text of the record calls up to 30% inactive
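Agonist mode: compounds alone added to overnight-plated D2 PathHunter cells for 90 min at 37 C, with 57 uM final dopamine (EC100) defining full response. Beta-arrestin recruitment detected by chemiluminescent reagent, read after 1 h at ambient temperature.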
gsp antag = qHTS for Antagonists of gsp, the Etiologic Mutation Responsible for Fibrous Dysplasia/McCune-Albright Syndrome: qHTS; gsp-mutant cells, cAMP HTRF, 30 min; control for the full effect not named in the record; Potency, µM (doses to about 76.9 µM), without a hit: top-dose activity change, negative = inhibition, usual class: inhibitors; 340,000 tested, 0.4% active; active = falling curve of any shape with a large fitted effect; inconclusive = falling curve, mostly with a smaller effect; inactive = flat or rising curve; cell line not stated here;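 also: intracellular cAMP measured with PDE inhibitor Ro 20-1724 present during compound exposure; potency is read from the fitted curve at half-maximal effect; % is scaled to controls: 0 for no effect and ±100 for the full control effect; nearly all actives have a fitted effect of over 65% in size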
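Measurement of cellular cAMP by homogeneous time-resolved fluorescence following a 30 min compound exposure at 37C. The PDE inhibitor […] was present throughout; the assay buffer was DPBS with 0.05% BSA and 0.005% Tween 20.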
CtBP-E1A blk = qHTS Assay for Inhibitors of the CtBP/E1A Interaction; 340,000 tested, 0.49% active; activity change, % (no concentration beside the values); AlphaScreen GST-E1A/His-CtBP binding, 1536-well; active compounds read low; control for the full effect not named in the record; CtBP / adenovirus E1A interaction (AlphaScreen); in the data active means activity change below about -65%; inconclusive means about -30% to -65%; inactive means above about -30%; also: % is scaled to controls: 0 for no effect and ±100 for the full control effect
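GST-E1A and His-tagged CtBP (125 nM each as 5X stock) were preincubated with pin-transferred compound for 2 h at 37 °C in the dark, then glutathione donor and nickel acceptor beads were added for 1 h before AlphaScreen reading.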
* marks the source's active call; other numbers are inactive results; [ ] = remark or other dose.

For Cc1cnc(NC(=O)NCC2CCCC(CNC(=O)Nc3ncc(C)s3)C2)s1 (stereo not given) the results were D2 potentiator -13, gsp agonist 11%[15.4 µM], Six1-Eya2 blk -19, D2 ag -1.5, gsp antag -32% and CtBP-E1A blk 20.
S=C(Nc1ccccc1Cl)N1CCCCC1 was read as D2 potentiator -16, gsp agonist 25%, Six1-Eya2 blk 6, D2 ag -2.7, gsp antag 20% and CtBP-E1A blk 6.
`Cn1c(=O)[nH]c(=O)c2c1[nH]c(=S)n2Cc1ccc(Cl)cc1` gave D2 potentiator -17, gsp agonist 35%, Six1-Eya2 blk -5, D2 ag 7.9 and gsp antag 1%.
O=C(CN1CCN(c2ncccn2)CC1)N1CCc2ccccc21 was read as D2 potentiator -5, gsp agonist inconclusive, Six1-Eya2 blk 1, D2 ag -5.0, gsp antag -8% and CtBP-E1A blk 12.
For O=C(COC(=O)/C=C/c1cccc(Br)c1)NC1CCCC1 the results were D2 potentiator -4, gsp agonist 0%, Six1-Eya2 blk 10, D2 ag -4.8, gsp antag 5% and CtBP-E1A blk 10.
`CC(C)C(=O)Nc1c2c(nn1-c1ccc(F)cc1)CSC2` gave D2 potentiator -8, gsp agonist inconclusive, Six1-Eya2 blk 5, D2 ag -3.4 and gsp antag -5%.
`O=C(CN1CCN(c2ccccc2)CC1)Nc1ccccc1Cl` gave D2 potentiator 1, gsp agonist -27%, Six1-Eya2 blk -12, D2 ag 3.4, gsp antag -7% and CtBP-E1A blk 1.
For Cn1c(=O)c2c(ncn2CC(=O)NCc2cccnc2)n(C)c1=O the results were D2 potentiator 8, gsp agonist 17%, Six1-Eya2 blk 4, D2 ag 0.6, gsp antag -2% and CtBP-E1A blk 3.
Screening CCOc1ccc(-c2nnn(CC(=O)NCc3ccc(OC)cc3)n2)cc1OCC returned D2 potentiator 1, gsp agonist 3%, Six1-Eya2 blk 1, D2 ag 0.8, gsp antag 3% and CtBP-E1A blk 12.
For O=C1c2ccccc2C(=O)N1Cc1cc(-c2ccc(Cl)cc2)no1 the results were D2 potentiator -4, gsp agonist -7%, Six1-Eya2 blk 3, D2 ag 1.0, gsp antag 9% and CtBP-E1A blk 8.
CC(C)OCCCn1c(=O)c2ccccc2n2c(CCC(=O)O)nnc12 was read as D2 potentiator -7, gsp agonist 2%[15.4 µM], Six1-Eya2 blk -9, D2 ag 0.3, gsp antag -7% and CtBP-E1A blk -10.
`CCOC(=O)c1cc(-c2ccc(F)cc2)n(CC(=O)NCc2cccnc2)c1C` gave D2 potentiator -8, gsp agonist 8%, Six1-Eya2 blk 2, D2 ag 2.6 and gsp antag 4%.
COc1ccc(-c2nn(C)c(=O)c3ccccc23)cc1NC(=O)Cn1nc(C)c2ccccc2c1=O was read as D2 potentiator -36, gsp agonist 1%, Six1-Eya2 blk -14, D2 ag -8.8, gsp antag 5% and CtBP-E1A blk -5.
O=C(Cn1c(C(F)(F)F)nc2ccccc21)c1ccc(F)cc1 was read as D2 potentiator -46, gsp agonist -18%, Six1-Eya2 blk 0, D2 ag -9.0, gsp antag -7% and CtBP-E1A blk 8.
For CN1CCCC1CCNc1ccc2c(=O)c3ccccc3oc2c1 (stereo not given) the results were D2 potentiator -16, gsp agonist 27%, Six1-Eya2 blk -10, D2 ag 0.2 and gsp antag 6%.
For Oc1ccc(N2CCN(c3ncnc4sc(-c5ccccc5)cc34)CC2)cc1 the results were D2 potentiator 14, gsp agonist 2%[15.4 µM], Six1-Eya2 blk -28, D2 ag 6.1, gsp antag -32% and CtBP-E1A blk -19.
`O=C(c1ccoc1)N1CCN(c2cc(-c3ccccc3)nc3cc(-c4ccccc4)nn23)CC1` gave gsp agonist inconclusive, Six1-Eya2 blk 11, D2 ag 3.1 and CtBP-E1A blk 7.
For NC(=O)CC(NC(=O)c1ccccc1)c1ccc(N2CCC(N3CCCC3)CC2)c([N+](=O)[O-])c1 (stereo not given) the results were D2 potentiator 0, gsp agonist 10%, Six1-Eya2 blk 3, D2 ag -2.8, gsp antag 12% and CtBP-E1A blk 5.
`O=C(NCCN1C(=O)S/C(=C\c2ccc(Cl)c(Cl)c2)C1=O)C1COc2ccccc2O1` (stereo not given) gave D2 potentiator 2, gsp agonist -19%, Six1-Eya2 blk -2, D2 ag -1.0, gsp antag -17% and CtBP-E1A blk 9.
Cc1ccc(C(C)C)c(OCCn2ccnc2C)c1 was read as D2 potentiator -36, gsp agonist -1%[15.4 µM], Six1-Eya2 blk -17, D2 ag -3.8, gsp antag 14% and CtBP-E1A blk -1.
Screening COc1ccc(CCN2C(=O)NC(NC(C)=O)(C(F)(F)F)C2=O)cc1OC (stereo not given) returned D2 potentiator 5, gsp agonist -33%[inhibitor], Six1-Eya2 blk -3, D2 ag -2.7, gsp antag 16% and CtBP-E1A blk -4.
Nn1c(Cc2ccccc2)nnc1Cc1ccccc1 was read as D2 potentiator 0, gsp agonist 30%, Six1-Eya2 blk -6, D2 ag -0.3, gsp antag 6% and CtBP-E1A blk 0.
`O=C(c1ccc(Cl)cc1)N1CCN(c2cc(=O)[nH]nc2-c2ccccc2)CC1` gave D2 potentiator -7, gsp agonist -1%, Six1-Eya2 blk 5, D2 ag -3.2, gsp antag -6% and CtBP-E1A blk -9.
Screening COC(=O)C1CCN(C(=O)COC(=O)CSc2ccc(C(N)=O)cc2[N+](=O)[O-])CC1 returned D2 potentiator -5, gsp agonist -21%, Six1-Eya2 blk 2, D2 ag -1.6, gsp antag 2% and CtBP-E1A blk 5.
Screening Brc1ccc(-c2csc(N/N=C/c3ccc4c(c3)OCO4)n2)cc1 returned D2 potentiator 18, gsp agonist -9%, Six1-Eya2 blk -10, D2 ag 12, gsp antag 13% and CtBP-E1A blk -3.
For COc1ccc(-c2csc(N)n2)cc1 the results were D2 potentiator -9, gsp agonist inconclusive, Six1-Eya2 blk -5, D2 ag -1.3, gsp antag -3% and CtBP-E1A blk -5.
O=c1c2ccccc2oc2ccc(Oc3ccccc3)cc12 was read as D2 potentiator -14, gsp agonist 14%, Six1-Eya2 blk 54, D2 ag -1.6, gsp antag -7% and CtBP-E1A blk 78.
For O=C(COc1ccc(F)cc1Br)Nc1ccccc1N1CCCC1 the results were D2 potentiator -27, gsp agonist -98%[inhibitor], Six1-Eya2 blk -20, D2 ag -1.8 and CtBP-E1A blk -12.
For S=C1NC2=C(CCCC2=C2SCCS2)C(c2ccccc2)N1 (stereo not given) the results were D2 potentiator -18, gsp agonist -3%[15.4 µM], Six1-Eya2 blk 21, D2 ag -5.1 and CtBP-E1A blk 19.
Screening Cc1ccc(-n2ncc3c(Nc4cccc(C(=O)O)c4)ncnc32)cc1 returned D2 potentiator 9, gsp agonist -1%, Six1-Eya2 blk -66*, D2 ag 1.3, gsp antag -15% and CtBP-E1A blk -74*.
`COCCNC(=O)C(c1ccc(C)o1)N(Cc1ccc(OC)cc1)C(=O)Cn1nnc2ccccc21` (stereo not given) gave D2 potentiator -6, gsp agonist -38%[inhibitor], Six1-Eya2 blk 1, D2 ag -3.8, gsp antag 0% and CtBP-E1A blk -2.
For CCSc1nnc(NC(=O)CCc2ccc(OC)cc2)s1 the results were D2 potentiator 19, gsp agonist 5%, Six1-Eya2 blk 8, D2 ag -0.3, gsp antag -15% and CtBP-E1A blk 0.
Cc1ccc(OC(C)C(=O)N(C)c2ccccc2)c([N+](=O)[O-])n1 (stereo not given) was read as D2 potentiator 0, gsp agonist 5%, Six1-Eya2 blk 5, D2 ag -2.0 and gsp antag 6%.
Cc1nc(-c2ccc(F)cc2)c(CC(=O)N(C)CC(=O)Nc2c(C)cccc2C)s1 was read as D2 potentiator -27, gsp agonist -3%[15.4 µM], Six1-Eya2 blk 4, D2 ag 0.9, gsp antag 1% and CtBP-E1A blk 0.
`COc1ccc(/C=N/NC(=S)Nc2cccc(C(=O)O)c2)cc1OC` gave D2 potentiator -3, gsp agonist 6%, Six1-Eya2 blk -16, D2 ag 0.6, gsp antag 7% and CtBP-E1A blk -3.
For CN1CCN(C(=O)c2ccc(CSc3nc4ccncc4n3Cc3ccc(F)cc3)cc2)CC1 the results were D2 potentiator -8, gsp agonist inconclusive, Six1-Eya2 blk 1, D2 ag -7.2, gsp antag 13% and CtBP-E1A blk 3.
`CCC(C)N1CCN(S(=O)(=O)Cc2ccccc2)CC1` (stereo not given) gave D2 potentiator -7, gsp agonist 26%, Six1-Eya2 blk -3, D2 ag -3.5, gsp antag 17% and CtBP-E1A blk -15.
For Cc1ccc(C=Nc2ccccc2C(N)=O)o1 the results were D2 potentiator -5, gsp agonist -20%, Six1-Eya2 blk 24, D2 ag -3.9, gsp antag 15% and CtBP-E1A blk 22.
For O=C(CN1C(=O)c2cccnc2Oc2ccc(Cl)cc21)NCCCc1ccccc1 the results were D2 potentiator 11, gsp agonist 1%, Six1-Eya2 blk 0, D2 ag 7.0, gsp antag -32% and CtBP-E1A blk -2.
Screening Cc1ccc(S(=O)(=O)N/N=C/c2c(F)cccc2Cl)cc1 returned D2 potentiator -25, gsp agonist -10%, Six1-Eya2 blk 1, D2 ag -7.6, gsp antag -5% and CtBP-E1A blk 9.
COC(=O)c1c(-c2c(Cl)cccc2Cl)noc1C(=O)NNC(=O)N(C)C was read as D2 potentiator -9, gsp agonist 9%[15.4 µM], Six1-Eya2 blk 8, D2 ag -2.0, gsp antag 2% and CtBP-E1A blk 3.
CCOC(=O)Cn1c(-c2cccnc2Cl)nc2cc(Cl)c(Cl)cc21 was read as D2 potentiator 5, gsp agonist 0%, Six1-Eya2 blk 0, D2 ag -0.6, gsp antag -5% and CtBP-E1A blk 6.

Already shown: an excerpt of the list.
For CCSc1nnc(NC(=O)CCc2ccc(OC)cc2)s1 the results were D2 potentiator 19, gsp agonist 5%, Six1-Eya2 blk 8, D2 ag -0.3, gsp antag -15% and CtBP-E1A blk 0.
Cc1ccc(OC(C)C(=O)N(C)c2ccccc2)c([N+](=O)[O-])n1 (stereo not given) was read as D2 potentiator 0, gsp agonist 5%, Six1-Eya2 blk 5, D2 ag -2.0 and gsp antag 6%.
Cc1nc(-c2ccc(F)cc2)c(CC(=O)N(C)CC(=O)Nc2c(C)cccc2C)s1 was read as D2 potentiator -27, gsp agonist -3%[15.4 µM], Six1-Eya2 blk 4, D2 ag 0.9, gsp antag 1% and CtBP-E1A blk 0.

Bioassay records (PubChem BioAssay)
